PrP UTR inh = inhibition of PrP 5' UTR reporter expression; inhibition, % (test concentration not listed); actives 0.35% (n = 340,000); cell-based PrP 5' UTR mRNA reporter, plate reader;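 active = every replicate at 50% or more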;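 also: 0 = median of the neutral control wells; tested in H4 reporter cells; numbers are from one replicate; inactives centre near -14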
Sa RN4220 lethal = S. aureus RN4220 growth inhibition; actives 0.33% (n = 330,000); inhibition, % (no concentration beside the values); OD600, 16 h;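 active = z-score of -3 or lower and OD600 up to 0.18 on both plates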;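 also: plate controls were untreated cells for no effect and reference antibiotic for full effect; stock transfer was 100 nL into about 80 µL; one replicate is shown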
BJeLR viability = kills HRASV12-expressing BJeLR cells; BJeLR (HRASV12) viability, CellTiter-Glo ATP luminescence, 48 h; reference of the scale not given here; inhibition, % (no concentration beside the values); actives 0.17% (n = 300,000); AID 1554;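 active = replicate mean above 50%; inconclusive = above 50% but judged a plate artefact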;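 also: 50 nL library stock added to about 25 µL; numbers are from one replicate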
Sa ugtP lethal = growth inhibition of S. aureus ugtP deletion strain. actives 0.54% (n = 330,000). AID 1259309. S. aureus RN4220 ugtP deletion, OD600 growth, 16 h; some inactives read as strong as hits. growth inhibition, % (no concentration beside the values);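 active = z-score under -3 and OD600 up to 0.15 on both plates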;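 also: plate controls were untreated wells for no effect and antibiotic for full effect; wells of about 80 µL received 100 nL stock; the first replicate is given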
Mtb hypoxia inh = reduces hypoxia-regulated biosensor signal in M. tuberculosis. AID 1159583. fluorescence inhibition, % (no concentration beside the values). actives 0.1% (n = 300,000). M. tuberculosis hypoxia-regulated fluorescent reporter, fluorescence;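 active = 35 to 45% if threefold the growth effect, above 45% if 1.5-fold the growth effect; inactive = the rest, general growth blockers included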;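 also: wells of about 50 µL received 100 nL stock; 0% = vehicle wells and 100% = reference inhibitor wells; whole bacteria with a GFP reporter of the hypoxia response; strong numbers were not always called active; many hits fall short of the cut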
Autofluor counter = compound fluorescence in toxin protease inhibitor counterscreen | compound autofluorescence counterscreen, microsphere flow cytometry; stronger effect = higher value | fluorescence intensity (concentration not given with the values) | actives 3.1% (n = 360,000);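 active = at least 3 SD above the mean of all compounds, about 16000 in these data; inconclusive = too few beads counted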;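 also: 100 nL of 1 mM stock went into each well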
Mtb hypoxia inh growth = recorded beside Mtb hypoxia inh, whose call it bears; growth inhibition, %; measured here: M. tuberculosis growth (absorbance);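 0% = vehicle and 100% = reference antibiotic; read after six days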
Starred values were filed as active, the others as inactive. Random draw from the library; any-hit rate near 4%.

Sample of the layout (3 entries):
Screening c1ccc(-c2nnc(SCc3nc4ccccc4[nH]3)n2Cc2ccco2)cc1 returned PrP UTR inh -33, Sa RN4220 lethal 1.2, BJeLR viability 0, Sa ugtP lethal 4, Mtb hypoxia inh 4, Autofluor counter 22637* and Mtb hypoxia inh growth 0.
`COc1cc(C=Nn2cnnc2)ccc1OC(=O)c1ccncc1` gave Sa RN4220 lethal 3.1, Sa ugtP lethal 7, Mtb hypoxia inh 7 and Mtb hypoxia inh growth 1.
Screening O=C(c1ccc(S(=O)(=O)Nc2ccccc2)cc1)N1CCCC(C(F)(F)F)C1 (stereo not given) returned PrP UTR inh -3, Sa RN4220 lethal 0.8, BJeLR viability -1, Sa ugtP lethal -1, Mtb hypoxia inh -4, Autofluor counter 4289 and Mtb hypoxia inh growth 2.

All compounds of this part, previewed entries included:
Screening c1ccc(-c2nnc(SCc3nc4ccccc4[nH]3)n2Cc2ccco2)cc1 returned PrP UTR inh -33, Sa RN4220 lethal 1.2, BJeLR viability 0, Sa ugtP lethal 4, Mtb hypoxia inh 4, Autofluor counter 22637* and Mtb hypoxia inh growth 0.
`COc1cc(C=Nn2cnnc2)ccc1OC(=O)c1ccncc1` gave Sa RN4220 lethal 3.1, Sa ugtP lethal 7, Mtb hypoxia inh 7 and Mtb hypoxia inh growth 1.
Screening O=C(c1ccc(S(=O)(=O)Nc2ccccc2)cc1)N1CCCC(C(F)(F)F)C1 (stereo not given) returned PrP UTR inh -3, Sa RN4220 lethal 0.8, BJeLR viability -1, Sa ugtP lethal -1, Mtb hypoxia inh -4, Autofluor counter 4289 and Mtb hypoxia inh growth 2.
Screening CCN(CC(=O)Nc1cc(Cl)ccc1OC)CC(=O)NC1CCS(=O)(=O)C1 (stereo not given) returned PrP UTR inh -13, Sa RN4220 lethal 2.9, BJeLR viability 5, Sa ugtP lethal 10, Mtb hypoxia inh -5, Autofluor counter 3993 and Mtb hypoxia inh growth 8.
`Cc1onc(-c2ccccc2)c1C(=O)N1CCC(C)CC1` gave PrP UTR inh -17, Sa RN4220 lethal 3.4, BJeLR viability -10, Sa ugtP lethal 6, Mtb hypoxia inh 1, Autofluor counter 4715 and Mtb hypoxia inh growth 9.
`COc1ccc(CCNC(=O)C/C(C)=N/NC(=O)C(c2ccccc2)c2ccccc2)cc1OC` gave PrP UTR inh -31, BJeLR viability -2 and Autofluor counter 5475.
COc1cccc(OCC(O)CN2C(C)CCCC2C)c1 (stereo not given) was read as PrP UTR inh -21, Sa RN4220 lethal 2.8, BJeLR viability 3, Sa ugtP lethal 17 and Autofluor counter 2112.
For Cc1cc(=O)[nH]c(N2CCN(C(=O)c3ccco3)CC2)n1 the results were PrP UTR inh 4, Sa RN4220 lethal -1.1, BJeLR viability -1, Sa ugtP lethal -9, Mtb hypoxia inh -10, Autofluor counter 3534 and Mtb hypoxia inh growth -6.
Screening COc1cc2c(cc1OC)C(c1cc3cc(OC)c(OC)cc3[nH]c1=O)N(C(=O)C1CC1)CC2 (stereo not given) returned PrP UTR inh -20, Sa RN4220 lethal -1.0, Sa ugtP lethal -2, Mtb hypoxia inh 3, Autofluor counter 20442* and Mtb hypoxia inh growth 5.
Screening COc1cc(/C=N/NC(=O)C(C)Nc2n[nH]c(=O)[nH]c2=O)ccc1O (stereo not given) returned PrP UTR inh -22, BJeLR viability -9 and Autofluor counter 9435.
CC1C(=O)N2CCCc3cc(S(=O)(=O)N(C)c4ccccc4)cc1c32 (stereo not given) was read as PrP UTR inh 5, Sa RN4220 lethal 3.0, BJeLR viability 3, Sa ugtP lethal 0, Mtb hypoxia inh 2, Autofluor counter 4335 and Mtb hypoxia inh growth 2.
`O=C(Nc1nnc(-c2ccccn2)o1)c1ccc(Br)cc1` gave PrP UTR inh -4, Sa RN4220 lethal 19, BJeLR viability 6, Sa ugtP lethal -11, Mtb hypoxia inh -5, Autofluor counter 2372 and Mtb hypoxia inh growth 2.
Screening O=C(NCC1CCCO1)c1ccc(CS(=O)(=O)c2c(Cl)cccc2Cl)o1 (stereo not given) returned PrP UTR inh -7, Sa RN4220 lethal 0.9, BJeLR viability 10, Sa ugtP lethal 9 and Autofluor counter 5957.
Screening CCOc1ccc(C(=O)C(CCC(CN(C)C)C(=O)c2ccc(OCC)cc2)CN(C)C)cc1 (stereo not given) returned PrP UTR inh -5, Sa RN4220 lethal -0.8, BJeLR viability 15, Sa ugtP lethal 6, Mtb hypoxia inh -4, Autofluor counter 1870 and Mtb hypoxia inh growth 5.
COc1cccc(CNC(=O)C2CC(=O)N(c3ccc4c(c3)OCCO4)C2)c1 (stereo not given) was read as PrP UTR inh -14, Sa RN4220 lethal 4.0, BJeLR viability 5, Sa ugtP lethal 6, Mtb hypoxia inh -12, Autofluor counter inconclusive and Mtb hypoxia inh growth -8.
`O=C(CSc1n[nH]c(-c2cccs2)n1)NC1CCS(=O)(=O)C1` (stereo not given) gave PrP UTR inh -13, Sa RN4220 lethal 3.1, BJeLR viability 2, Sa ugtP lethal 8, Mtb hypoxia inh 5, Autofluor counter 5320 and Mtb hypoxia inh growth -1.
For O=C(NN=Cc1c(Cl)cccc1Cl)c1ccc(F)cc1 the results were Sa RN4220 lethal 2.6, Sa ugtP lethal 4, Mtb hypoxia inh 17 and Mtb hypoxia inh growth 18.
O=C(O)c1ccc(CN2CCOCC2)o1 was read as PrP UTR inh -19, Sa RN4220 lethal 4.8, BJeLR viability -3, Sa ugtP lethal 5, Mtb hypoxia inh 1, Autofluor counter 2431 and Mtb hypoxia inh growth -3.
For COc1cccc(CN2CCNC(=O)C2CC(=O)N(Cc2cnn(C)c2)C(C)C)c1 (stereo not given) the results were PrP UTR inh -28, Sa RN4220 lethal 3.0, BJeLR viability 3, Sa ugtP lethal 5, Mtb hypoxia inh 1, Autofluor counter 4907 and Mtb hypoxia inh growth -9.
Screening Cc1ccc(S(=O)(=O)N2CCOCC2)cc1NC(=O)CSc1n[nH]c(N)n1 returned PrP UTR inh -14, Sa RN4220 lethal 1.0, BJeLR viability -2, Sa ugtP lethal 9, Mtb hypoxia inh 5, Autofluor counter 5250 and Mtb hypoxia inh growth 5.
`CCOCCCNC(=O)C1CCN(S(=O)(=O)c2c(C)noc2/C=C\c2ccc(OC)cc2)CC1` gave PrP UTR inh -16, Sa RN4220 lethal 6.2, BJeLR viability -3, Sa ugtP lethal 6, Mtb hypoxia inh -1, Autofluor counter 8421 and Mtb hypoxia inh growth -2.
For CC(NC(=O)c1cc(=O)[nH]c2ccccc12)c1ccccc1 (stereo not given) the results were PrP UTR inh -13, Sa RN4220 lethal 4.6, BJeLR viability 5, Sa ugtP lethal 9, Mtb hypoxia inh 2, Autofluor counter 4567 and Mtb hypoxia inh growth -1.
`Cc1nnc(N2CCCCC2)c2ccccc12` gave PrP UTR inh -22, Sa RN4220 lethal 14, BJeLR viability -6, Sa ugtP lethal 4 and Autofluor counter 3208.
Screening CN1CCc2cc(Cl)c(O)cc2[C@@H](c2ccccc2)C1 returned PrP UTR inh 17, BJeLR viability 1 and Autofluor counter 6068.
For CC(=O)c1c(N2CCN(C)CC2)[nH]c(-c2ccccc2)nc1=S the results were PrP UTR inh -6, Sa RN4220 lethal -0.4, BJeLR viability -4, Sa ugtP lethal 9 and Autofluor counter 3963.
`CN1CCN(CC#CCC(O)(c2ccccc2)C2CCCC2)CC1` (stereo not given) gave PrP UTR inh -6, Sa RN4220 lethal -4.9, BJeLR viability 4, Sa ugtP lethal 8, Mtb hypoxia inh 12, Autofluor counter 2466 and Mtb hypoxia inh growth 1.
Screening Cc1ccccc1CN1CCNC(=O)C1CC(=O)NCCN1CCCCC1=O (stereo not given) returned PrP UTR inh -16, Sa RN4220 lethal 6.2, BJeLR viability 1, Sa ugtP lethal 2, Mtb hypoxia inh 4, Autofluor counter 6038 and Mtb hypoxia inh growth 0.
Cc1ccc(Sc2ccc([N+](=O)[O-])cc2[N+](=O)[O-])nc1 was read as PrP UTR inh -13, Sa RN4220 lethal -2.7, BJeLR viability -1, Sa ugtP lethal -3, Mtb hypoxia inh -5, Autofluor counter 2531 and Mtb hypoxia inh growth 8.
`COc1ccc(Cc2nnc(SC(C)C(=O)Nc3ccc(F)cc3Cl)o2)cc1` (stereo not given) gave PrP UTR inh -7, Sa RN4220 lethal 1.0, BJeLR viability -13, Sa ugtP lethal 6, Mtb hypoxia inh 1, Autofluor counter 5032 and Mtb hypoxia inh growth -1.
O=C(c1cccc(C(F)(F)F)c1)C1CCCN(Cc2ccc(OCCO)cc2)C1 (stereo not given) was read as PrP UTR inh -11, Sa RN4220 lethal 7.2, BJeLR viability 5, Sa ugtP lethal 8, Mtb hypoxia inh -2, Autofluor counter 4291 and Mtb hypoxia inh growth -9.
CCCCCCNS(=O)(=O)c1ccc(OC)c(OC)c1 was read as PrP UTR inh -15, Sa RN4220 lethal 0.2, BJeLR viability 0, Sa ugtP lethal 3, Mtb hypoxia inh 1 and Mtb hypoxia inh growth -1.
`CC(=NNC(=S)NC1CCCCC1)c1c(F)cccc1F` gave Sa RN4220 lethal 0.7, Sa ugtP lethal 23, Mtb hypoxia inh 13 and Mtb hypoxia inh growth 5.
`CCOc1ccc(C(=O)N2CCC(C(=O)c3ccc4c(c3)OCCO4)CC2)cc1` gave PrP UTR inh 9, Sa RN4220 lethal 0.9, BJeLR viability 1, Sa ugtP lethal -2, Mtb hypoxia inh -1, Autofluor counter 17361* and Mtb hypoxia inh growth 2.
Cn1c(=O)c2sccc2n2c(CCCC(=O)NCc3ccco3)nnc12 was read as PrP UTR inh -8, Sa RN4220 lethal -1.9, BJeLR viability -1, Sa ugtP lethal -6, Mtb hypoxia inh -7, Autofluor counter 3988 and Mtb hypoxia inh growth 6.
For CC1CN(C(C)CO)C(=O)c2cccc(NS(=O)(=O)c3ccc(F)cc3)c2OC1CN(C)S(=O)(=O)c1cn(C)cn1 (stereo not given) the results were Sa RN4220 lethal 3.4, Sa ugtP lethal 4, Mtb hypoxia inh 3 and Mtb hypoxia inh growth -2.
`O=S(=O)(c1ccc(Br)cc1Cl)N1CCCN(c2ccc(C(F)(F)F)cn2)CC1` gave PrP UTR inh -18, Sa RN4220 lethal -5.3, Sa ugtP lethal -15, Mtb hypoxia inh 11, Autofluor counter 3764 and Mtb hypoxia inh growth 11.
`COc1ccc(CNC(=O)CC2C[C@H](C(=O)N3CCOCC3)[C@@]3(CCC4CCCC4)c4[nH]c5ccccc5c4CCN3C2=O)cc1OC` (stereo not given in full) gave PrP UTR inh -16, Sa RN4220 lethal 1.7, Sa ugtP lethal 1, Mtb hypoxia inh 1, Autofluor counter 3902 and Mtb hypoxia inh growth -1.
`CN(C)C(=O)N1CCN(c2nc(-c3ccccc3)cs2)CC1` gave PrP UTR inh -73, Sa RN4220 lethal -2.2, BJeLR viability 12, Sa ugtP lethal 7, Mtb hypoxia inh 15, Autofluor counter 3402 and Mtb hypoxia inh growth 3.
For O=C(Nc1cccc(-c2cn3cccnc3n2)c1)c1cccs1 the results were PrP UTR inh 2, Sa RN4220 lethal 7.2, BJeLR viability -10, Sa ugtP lethal -1, Mtb hypoxia inh -2, Autofluor counter 4601 and Mtb hypoxia inh growth -6.
COc1ccc(-c2csc(NC(=O)c3ccccc3NS(=O)(=O)c3ccc(F)c(F)c3)n2)cc1 was read as PrP UTR inh -35, Sa RN4220 lethal 89*, BJeLR viability 16, Sa ugtP lethal 85, Mtb hypoxia inh -5, Autofluor counter 4316 and Mtb hypoxia inh growth 13.
`CCN1CCN(C(c2cccs2)C(C)NC(=S)Nc2cccc(C)c2C)CC1` (stereo not given) gave PrP UTR inh -22, Sa RN4220 lethal 4.2, BJeLR viability 8, Sa ugtP lethal 0, Mtb hypoxia inh 15, Autofluor counter 5009 and Mtb hypoxia inh growth 8.
`C=CCOc1nc2c(c(=O)n(Cc3ccc(Cl)cc3)c(=O)n2C)n1C` gave PrP UTR inh -14, Sa RN4220 lethal -14, BJeLR viability -6, Sa ugtP lethal -5, Mtb hypoxia inh 22, Autofluor counter 3279 and Mtb hypoxia inh growth 10.

For reference, part of the list above:
`CN1CCN(CC#CCC(O)(c2ccccc2)C2CCCC2)CC1` (stereo not given) gave PrP UTR inh -6, Sa RN4220 lethal -4.9, BJeLR viability 4, Sa ugtP lethal 8, Mtb hypoxia inh 12, Autofluor counter 2466 and Mtb hypoxia inh growth 1.
Screening Cc1ccccc1CN1CCNC(=O)C1CC(=O)NCCN1CCCCC1=O (stereo not given) returned PrP UTR inh -16, Sa RN4220 lethal 6.2, BJeLR viability 1, Sa ugtP lethal 2, Mtb hypoxia inh 4, Autofluor counter 6038 and Mtb hypoxia inh growth 0.
